Screening data (PubChem BioAssay)
GLA inh pH 4.5: blocks human alpha-galactosidase A at pH 4.5 | P06280 | purified enzyme, 4-MU-alpha-Gal fluorescence, pH 4.5 | activity change, negative = inhibition, % at 105 µM | 230,000 tested, under 10 active; inconclusive = small, poorly fitted or top-dose-only inhibition, or a rising curve; inactive = flat fitted curve, though single readings scatter; no compound was filed as active;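 note: 0% = full activity with enzyme and -100% = basal without enzyme; dose as in the result columns while the protocol names 77 µM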
Target sequence (P06280 whole entry, looked up): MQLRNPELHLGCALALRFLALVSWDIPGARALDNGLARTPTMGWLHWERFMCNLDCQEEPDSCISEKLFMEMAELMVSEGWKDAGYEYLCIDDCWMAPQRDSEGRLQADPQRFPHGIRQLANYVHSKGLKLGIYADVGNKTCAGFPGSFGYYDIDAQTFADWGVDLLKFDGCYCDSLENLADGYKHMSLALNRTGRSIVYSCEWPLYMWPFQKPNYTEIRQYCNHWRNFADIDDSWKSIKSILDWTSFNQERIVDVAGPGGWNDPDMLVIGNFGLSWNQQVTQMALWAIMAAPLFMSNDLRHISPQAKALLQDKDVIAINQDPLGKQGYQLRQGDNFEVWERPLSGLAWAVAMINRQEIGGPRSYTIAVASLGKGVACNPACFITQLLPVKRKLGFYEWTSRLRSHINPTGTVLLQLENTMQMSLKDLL
Rango complex inh: inhibitors of Rango-importin beta complex formation; Q14974; Rango CFP/YFP FRET sensor + importin beta, 45 min; Potency, µM (highest dose often 92.2 µM), inactives show at the top dose inhibition of complex formation; 340,000 tested, 0.031% active; AID 540263; active = rising FRET ratio curve, often small or poorly fitted; inconclusive = mostly compound fluorescence or quenching in the first reads; inactive = flat curves in all reads;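 note: potency is the fitted concentration of half-maximal effect; 0% = DMSO wells and 100% = buffer wells lacking importin beta; nearly all actives have a fitted effect of over 15% in size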
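FRET biosensor (snurportin 1 IBB flanked by EYFP and cerulean), 50 nM, with compound 5 min, then 0.125 microM importin beta in PBS, 1 mM DTT, 0.02% Tween-20, 0.1% BSA. CFP/YFP ratio read after 45 min at room temperature; pre-read flags interference.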
miR-21 reporter: raises the signal of a miR-21 reporter; AID 2288; HeLa miR-21 FLuc reporter, luciferase, 48 h; Potency, µM (top dose mostly 38.3 µM), without a hit: at the highest dose reporter change, positive = more light; 340,000 tested, under 10 active; active = well fitted rising curve with a large enough effect; inconclusive = small, poorly fitted or top-dose-only effect; inactive = no such curve, though single readings can be large or run the other way;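 note: % of control where 0% means no effect; miR-21 action dims this reporter so a rising signal means less miR-21 action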
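HeLa cells stably expressing CMV-driven firefly luciferase with a downstream miR-21 binding sequence, endogenously expressing miR-21, were treated with titrations (up to about 40uM final) for 48 hours at 37 degree Celsius. Luciferase luminescence was read after lysis.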
Rango release inh: prevents RanGTP from dissociating the Rango-importin beta complex; Potency, µM (series often up to 46.1 µM), without a hit: top-dose activity change, negative = inhibition; AID 540253; 340,000 tested, 0.071% active; Biochemical FRET Rango-importin beta, RanGTP-induced dissociation; active means falling FRET ratio curve, often poorly fitted, with flat reads before Ran was added; inconclusive means other falling curves, or compound fluorescence or quenching; inactive means flat or rising ratio curve;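 note: potency is the fitted concentration of half-maximal effect; % of control where 0% means no effect; nearly all actives have a fitted effect of over 45% in size; -100% = wells without RanGTP and RCC1; the record marks most hits as doubtful in a second field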
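FRET read at 45 min, room temperature: inhibitors block the CFP/YFP signal rise when RanGTP (0.6 uM Ran, 2 mM GTP, 0.2 uM RCC1) frees Rango (0.1 uM) from importin beta (0.25 uM). Pre-read after 5 min compound exposure flags interference.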
* marks the source's active call; other numbers are inactive results; u = inconclusive; x = no result given; & = joins results of further samples.

no.	Molecule	GLA inh pH 4.5	Rango complex inh	miR-21 reporter	Rango release inh
1	CC(=O)NC(c1ccc(C(C)C)cc1)c1ccc2cccnc2c1O (stereo unspecified)	x	1.4%	24%	-11%
2	Cn1c(=O)n(CC(=O)N2CCOCC2)c2ccccc21	-1	u	-6%	1%
3	CCC1(C)Cc2ccccc2-c2nc(NCCO)[nH]c(=O)c21 (stereo unspecified)	3	-1.8%	4%	5%
4	Cc1ccc(Nc2cc(C)nc(N3CCOCC3)n2)c(C)c1	3	0.2%	-6%	-1%
5	CCOC(=O)c1c(C)[nH]c(C(=O)COC(=O)c2cnc(C)cn2)c1C	5	u	-15%	-6%
6	Cc1csc(NC(=O)CSc2nnnn2C)n1	4	2.4%	-43%	15%
7	O=C1CCC(=O)N1CC(=O)N(c1ccccc1)c1ccccc1	-15	5.1%	1%	9%
8	O=C(CN1C(=O)c2cccnc2Oc2ccc(Cl)cc21)NCCC1=CCCCC1	x	1.2%	-5%	4%
9	O=C(Nc1ccc(F)cc1)C1CCC(CNc2c(N3CCCCC3)c(=O)c2=O)CC1 (stereo unspecified)	2	-0.3%	-1%	-8%
10	CCNc1nc(NC(C)C)nc(ON=C(C)C)n1	6	x	4%	x
11	Cc1c(C(=O)OCC(=O)c2ccc3c(c2)OCCO3)oc2ccccc12	-15	0.5%	-42%	0%
12	CCOC(=O)N1CCC(NC(=O)Cn2c3c(c(-c4ccccc4Cl)cc2=O)CCC3)CC1	1	1.3%	9%	10%
13	CC1(C(=O)NCCc2c[nH]c3ccccc23)C=CCN1C(=O)c1ccccc1 (stereo unspecified)	6&3	-1.5%	-6%	-4%
14	CCCCN(C(=O)NC(=O)C1=C(N2CCOCC2)/C(=C/c2ccccc2)CC1)S(C)(=O)=O	u	-6.3%	-12%	-23%
15	Cc1cc(N2CCN(c3ccccc3Cl)CC2)n2cc(-c3ccccc3)nc2n1	-10	-7.8%	15%	-12%
16	O=C(COC(=O)CNC(=O)c1ccccc1)Nc1ccc(F)c([N+](=O)[O-])c1	4	-0.7%	0%	55%
17	COc1ccc(OCc2nc(N)nc(Nc3ccc(C)cc3)n2)cc1	2	0.4%	-53%	1%
18	O=C(CS)Nc1ccc2ccccc2c1	8	-0.8%	-11%	2%
19	CCn1c(O)c(/C=C/C=C/C=Nc2ccccc2)sc1=S	-1	-0.4%	-9%	-14%
20	CCN(CC)C(NC(=O)Cc1ccccc1)C(Cl)(Cl)Cl (stereo unspecified)	4	-0.5%	0%	-9%
21	CCOC(=O)c1[nH]c(=O)[nH]c1COC(=O)c1cc2ccccc2o1	-5	u	0%	-22%
22	CCOC(=O)c1c(C)[nH]c(C(=O)COC(=O)/C=C/c2cccc(OC)c2OC)c1C	-1	-2.7%	-1%	8%
23	Cc1cc(N/N=C2\CC(C)CC(C)(C)C2)nc2ccccc12 (stereo unspecified)	-9	u	-32%	5%
24	COc1cccc(NC(=S)N2CCc3cc(OC)c(OC)cc3C2)c1	-13	-2.0%	-7%	-5%
25	COC(=O)Cc1ccc(NC(=S)NCCSc2ccc(C)cc2)cc1	-5	-0.4%	-2%	27%
26	Cc1cccc(CN2CCN(C(C)C(=O)NC(C)c3ccccc3)CC2)c1 (stereo unspecified)	x	u	-4%	u
27	COC(=O)c1ccccc1NC(=O)c1cnn2c(C(F)F)cc(C3CC3)nc12	17	-2.9%	-12%	-10%
28	CCOC(=O)c1nnn(-c2nonc2-n2cccc2)c1CN1CCC(C)CC1	-2	4.1%	-4%	-1%
29	O=C(NN=CC=Cc1ccccc1)C(O)C(O)C(=O)NN=CC=Cc1ccccc1 (stereo unspecified)	x	6.7%	x	0%
30	C=CCn1c(SCC(=O)Nc2c(C)n(C)n(-c3ccccc3)c2=O)nc2ccccc2c1=O	x	-0.4%	x	u
31	CC1CCCCC1NC(=O)Cn1c(=O)oc2cc(S(=O)(=O)N3CCCC3)ccc21 (stereo unspecified)	x	2.8%	3%	1%
32	S=C(NCCSCc1ccccc1Cl)Nc1ccccc1	2	-0.6%	-3%	11%
33	CCCNC(=O)c1cccc(Cn2cc(Br)c([N+](=O)[O-])n2)c1	5	0.2%	0%	13%
34	O=C(NCCc1ccccc1)C(c1ccccc1)N(C(=O)c1csnn1)C1CC1 (stereo unspecified)	-12	u	1%	4%
35	CCOc1cc(C(=O)OCC(=O)Nc2cc(C)on2)cc(OCC)c1OCC	4	0.2%	-1%	3%
36	Cc1ccccc1NC(=S)Nc1cccc([N+](=O)[O-])c1	3	0.7%	-4%	4%
37	CCOc1ccc(-c2nn(-c3ccccc3)cc2/C=C2\SC(=S)N(Cc3ccco3)C2=O)cc1	4	1.1%	-6%	-15%
38	Cc1cc(C)c2c3c(sc2n1)C(c1ccccc1)C(C#N)=C(N)O3 (stereo unspecified)	-2	u	-5%	u
39	Cc1c(Br)c([N+](=O)[O-])nn1CC(=O)Nc1sc2c(c1C(=O)OC(C)C)CCC(C)C2 (stereo unspecified)	4	-6.1%	-3%	14%
40	CCCOc1ccc(N2C(=O)CC(N(Cc3ccccc3)N=O)C2=O)cc1 (stereo unspecified)	-2	0.4%	-5%	1%
41	C#CCOCCOCCOCCNc1nc(N2CCN(C(=O)[C@H]([C@@H](C)CC)n3cc([C@@H](N)Cc4ccc(O)cc4)nn3)CC2)nc(N2CCN(C(=O)[C@H]([C@@H](C)CC)n3cc([C@@H](N)CC(C)C)nn3)CC2)n1	0	0.9%	1%	21%
42	CC1(C)CC(=O)c2c(O)cc(O)cc2O1	0	3.2%	-4%	-5%
43	CC(C)c1cc(C(C)C)c(S(=O)(=O)N2CCNCC2)c(C(C)C)c1	x	-0.3%	x	-3%
44	C=C1CSc2nc3ccccc3c(=O)n21	6	5.3%	-7%	-8%
45	O=C(CN1CCN(S(=O)(=O)N2CCOCC2)CC1)Nc1cc(Cl)cc(Cl)c1	x	1.2%	0%	3%
46	CCN(CC(=O)NCc1cccs1)S(=O)(=O)c1ccc(F)cc1	x	1.3%	x	-3%
47	Fc1ccc(-c2nn3c(C4COc5ccccc5O4)nnc3s2)cc1 (stereo unspecified)	-4	3.6%	-24%	9%
48	CCCCOc1ccccc1-c1ccccc1CN1[C@@H](C(C)C)COCCS1(=O)=O	x	-2.6%	x	15%
49	O=C(NC1CCCc2ccccc21)C1CCN(S(=O)(=O)N2CCCCCC2)CC1 (stereo unspecified)	7	1.6%	10%	9%
50	O=C(Nc1cccc(NC(=O)c2cccc(F)c2)n1)c1cccc(F)c1	x	-1.1%	-19%	-14%

More structures:
no.	Molecule	GLA inh pH 4.5	Rango complex inh	miR-21 reporter	Rango release inh
51	CCCc1ccc2oc(C(=O)N(Cc3ccncc3)CC3CCCO3)c(C)c2c1 (stereo unspecified)	x	-0.8%	2%	-3%
52	CCOC(=O)c1cccc(NC(=O)CC2Oc3ccccc3NC2=O)c1 (stereo unspecified)	x	-2.8%	5%	1%
53	COc1ccc(NC(=O)CSc2nnc(CN3CCOCC3)n2-c2ccccc2)cc1Cl	-1	-4.3%	-3%	-5%
54	O=C(NCc1nc2ccccc2[nH]1)c1cccc(S(=O)(=O)N2CCOCC2)c1	1	5.8%	0%	4%
55	Cn1cc(CNC(=O)C2CCC(=O)N(Cc3ccccc3F)C2)cn1 (stereo unspecified)	x	2.4%	0%	-10%
56	CN1CCN(c2cc(=O)n(-c3ccc(Cl)cc3)c(=O)[nH]2)CC1	-16	-3.1%	0%	-3%
57	Cc1ccc(OCCOCCN2CCCC2)c(Br)c1	x	-0.6%	-7%	-1%
58	COc1cc(C(C)=O)ccc1Oc1cnccn1	6	-3.2%	0%	1%
59	O=C(CSc1nc2c([nH]c3ccccc32)c(=O)n1-c1ccc(F)cc1)NCc1ccco1	5	2.7%	5%&-3%	-2%
60	CC(C)CC(=O)c1c[nH]c(C(=O)NCc2ccc(F)cc2)c1	x	-0.5%	-3%	11%
61	Oc1c(CN2CCOCC2)ccc(CN2CCOCC2)c1O	x	u	x	-11%
62	CC(=O)N(C)c1ccc(OCC(O)Cn2c(C)nc3ccccc32)cc1 (stereo unspecified)	6	1.9%	19%	8%
63	O=C(Cc1ccc(Br)cc1)NNC(=O)Nc1ccc(Cl)cc1	0	1.6%	0%	-7%
64	Cc1nn(-c2ccccc2)c2[nH]c(=O)cc(C(F)F)c12	x	4.9%	x	-5%
65	C#CCOCCOCCOCCNc1nc(N2CCN(C(=O)[C@H]([C@@H](C)CC)n3cc(CCC(=O)O)nn3)CC2)nc(N2CCN(C(=O)[C@H](CCCCN)n3cc(CCCC)nn3)CC2)n1	x	-2.3%	x	-18%
66	COc1ccc(N2C(=O)CC(Cc3ccccc3)C2=O)cc1 (stereo unspecified)	-17	2.1%	-10%	6%
67	O=C(O)c1ccccc1C(=O)OCc1ccccc1	5	0.9%	-18%	-22%
68	CC(C)COc1cccc(-c2cc(C(=O)N/N=C/c3ccncc3)c3ccccc3n2)c1	x	-0.4%	5%	-2%
69	CC(=O)Nc1ccc(S(=O)(=O)Oc2cccc(N3C(=O)C4CCCCC4C3=O)c2)cc1 (stereo unspecified)	5	0.1%	0%	5%
70	Cc1ccc(-c2cc(Cc3cccs3)c(=O)[nH]n2)cc1	-5	4.7%	-14%	4%
71	Cc1cccc(NC(=O)c2ccc(S(=O)(=O)N3CCCCCC3)cc2)n1	x	0.5%	x	29%
72	Cc1onc(-c2c(Cl)cccc2Cl)c1C(=O)N(C)Cc1ccccc1	x	5.2%	4%	3%
73	FC(F)Oc1ccc(NC(=S)Nc2ccc3cn[nH]c3c2)cc1	-16	-3.6%	-1%	-1%
74	O=C1c2ccccc2C(=O)N1CCCn1ccnc1	x	2.8%	0%	1%
75	CCn1nc(C)cc1C(=O)Sc1ccc(C)cc1	5	-1.6%	-2%	1%
76	CCCCCCCNC1=CC(=O)CC(c2ccccc2)C1 (stereo unspecified)	-5	u	26%	u
77	COc1cccc(NC(=O)COC(=O)/C=C/c2ccc(Cl)cc2Cl)c1	3	-0.7%	-5%	-6%
78	CCCCOc1ccc(NC(=O)CN2CCN(C(=O)OCC)CC2)cc1	1	0.7%	-1%	0%
79	O=C(/C=C/c1ccccc1)Nc1cccc(C(=O)NCCc2ccccc2)c1	x	-0.1%	x	22%
80	Cn1c(CCNC(=O)c2cc(COc3ccc(F)c(F)c3)on2)nc2ccccc21	x	4.0%	-30%	-4%
81	Cc1cc(C)cc(-c2nnc(SCC(=O)NCc3cccs3)o2)c1	1	2.8%	-7%	10%
82	O=S(=O)(c1ccccc1)N(Cc1ccccn1)Cc1ccccn1	x	1.1%	0%	-13%
83	COc1cc(/C=N/NC(=O)c2nonc2C)ccc1O	-2	-4.4%	-7%	4%
84	CC1OC23CCCCC2C(C#N)(C(=N)O3)C1(C#N)C#N (stereo unspecified)	11	u	-9%	u
85	COc1ccc(N2CCN(C(=O)Cn3cnc4c(cnn4-c4ccccc4)c3=O)CC2)cc1	3	3.4%	0%	0%
86	COC(=O)[C@@]1(Cc2ccccc2)[C@H]2C(=O)N(C)C(=O)[C@H]2[C@H]2CN=C(SCc3ccc(Cl)cc3)N21	x	-1.7%	x	-1%
87	COc1ccc(/C=N/n2c(-c3n[nH]c4c3CCC4)n[nH]c2=S)c(OC)c1OC	4	7.0%	1%	-24%
88	Cc1cc(Br)ccc1NC(=S)N1CCOCC1	-7	u	0%	-14%
89	Cc1cc(NC(=O)c2cnn3cccnc23)n(-c2ccccc2)n1	9	1.0%	-11%	2%

Part of the list above, screen by screen.
[78] CCCCOc1ccc(NC(=O)CN2CCN(C(=O)OCC)CC2)cc1
[79] O=C(/C=C/c1ccccc1)Nc1cccc(C(=O)NCCc2ccccc2)c1
[80] Cn1c(CCNC(=O)c2cc(COc3ccc(F)c(F)c3)on2)nc2ccccc21
[81] Cc1cc(C)cc(-c2nnc(SCC(=O)NCc3cccs3)o2)c1

assay / compound,78,79,80,81
GLA inh pH 4.5,1,x,x,1
Rango complex inh,0.7%,-0.1%,4.0%,2.8%
miR-21 reporter,-1%,x,-30%,-7%
Rango release inh,0%,22%,-4%,10%

The list is partial (hit frequency here may not be typical).
